# GALR2 agonist = activates the human galanin receptor 2; activation, %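 (tested at 5 µM)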; actives 0.48% (n = 140,000); GALR2-expressing cells, agonist activation read-out; AID 803; O43603;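 active means above mean plus 3 SD of all compounds, about 5% in these data, not always enough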;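 further: 0% = vehicle buffer wells and 100% = reference agonist at full effect; tested in CHO reporter cells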
# PKD1 inh = blocks activity of human protein kinase D1 | AID 797 | inhibition, %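 (about 10 µM by stock and volumes)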 | PKD1 kinase fluorescence polarization assay | actives 0.056% (n = 200,000);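 active means inhibition of 50% or more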;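 further: controls were vehicle for no effect and a reference inhibitor for full effect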
# Target sequence (Q15139 whole entry, looked up): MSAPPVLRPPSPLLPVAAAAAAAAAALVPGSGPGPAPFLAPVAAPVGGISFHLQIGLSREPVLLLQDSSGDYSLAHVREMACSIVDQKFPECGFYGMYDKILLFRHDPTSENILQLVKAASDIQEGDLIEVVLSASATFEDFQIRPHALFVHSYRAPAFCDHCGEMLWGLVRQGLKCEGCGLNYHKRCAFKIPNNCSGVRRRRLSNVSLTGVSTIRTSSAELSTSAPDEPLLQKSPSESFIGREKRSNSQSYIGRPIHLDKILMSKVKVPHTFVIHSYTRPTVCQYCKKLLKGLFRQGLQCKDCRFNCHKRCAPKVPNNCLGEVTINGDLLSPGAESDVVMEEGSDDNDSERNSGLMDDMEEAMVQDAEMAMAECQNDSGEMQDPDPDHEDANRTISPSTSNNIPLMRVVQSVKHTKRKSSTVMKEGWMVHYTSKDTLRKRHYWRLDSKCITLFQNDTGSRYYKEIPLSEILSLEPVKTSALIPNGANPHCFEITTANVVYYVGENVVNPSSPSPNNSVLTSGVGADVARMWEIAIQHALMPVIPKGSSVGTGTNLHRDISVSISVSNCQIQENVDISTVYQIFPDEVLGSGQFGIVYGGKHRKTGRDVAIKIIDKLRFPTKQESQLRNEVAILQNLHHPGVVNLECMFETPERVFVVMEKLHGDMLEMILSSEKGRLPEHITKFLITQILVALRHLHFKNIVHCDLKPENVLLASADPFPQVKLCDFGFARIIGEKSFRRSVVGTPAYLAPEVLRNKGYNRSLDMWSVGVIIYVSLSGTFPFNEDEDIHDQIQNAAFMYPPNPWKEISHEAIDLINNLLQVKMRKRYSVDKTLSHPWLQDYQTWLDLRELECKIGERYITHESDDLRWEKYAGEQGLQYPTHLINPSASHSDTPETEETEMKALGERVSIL
# Insulin prom inh = TRM-6 insulin promoter activity inhibition | TRM-6 cells (human fetal islet line), insulin promoter-eGFP reporter, imaging; reporter expression induced with tamoxifen | actives 0.9% (n = 130,000) | inhibition, % at 2 µM;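 active means inhibition above the mean plus 3 SD, with well images judged a real hit on visual review, cut at about 60% in these data, passing the limit was not always enough; inconclusive means inhibition over the cutoff but images rejected on review; inactive means inhibition not above the cutoff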
# RGS16-Gao HTS = RGS16-Galphao interaction regulator (human) | actives 0.38% (n = 220,000) | binding response (% of control), % at 10 µM | O15492+P09471 | AID 1441 | bead-based flow cytometry RGS16-Galphao binding, fluorescence; actives lie on both sides;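 active means below 25% or above 175%, edge rows of some plates excepted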;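 further: Galphao activated by GDP with aluminum fluoride before binding; 100% = wells without compound and 0% = beads without RGS; some results beyond the cut were filed as inactive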
# HSV augment = HSV replication enhancement. HSV replication augmentation in cells, fold increase. maximum fold increase. actives 0.005% (n = 220,000);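 active means peak rise of 1.5-fold or more in the series; inconclusive means self-fluorescent or not available for retest; tested in PC3 cells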;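 further: first round at 10 µM; read as green reporter fluorescence; hits show the peak of a series up to 25 µM; 1 = signal of infected wells without compound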
# Insulin prom inh cell count = also measured in Insulin prom inh; calls as there; normalized cell count, %; measured here: cell count, toxicity; reference of the scale not given here;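 cells exposed to compound for 48 h; stained nuclei by imaging scaled within each plate; lower means fewer cells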
# HSV augment primary fold = also measured in HSV augment; calls as there; fold increase; compound at 10 µM; measured here: primary screen fold increase 10 uM; tested in PC3 cells;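 GFP signal in the first replicate; 1 = infected wells without compound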
# * = called active by the depositor; i = inactive; ? = inconclusive; . = not tested or not shown; [ ] = another dose, or the depositor's remark.
SMILES,GALR2 agonist,PKD1 inh,Insulin prom inh,Insulin prom inh cell count,RGS16-Gao HTS,HSV augment,HSV augment primary fold
O=[N+]([O-])c1ccccc1CNC1CCCc2ccccc21 (centres undefined),.,-4,22,110,102,i,0.84
Cc1ccc(Oc2ncccc2NC(=O)CCCC(=O)O)c2c1CCC2,.,.,.,.,101,i,0.9
CCc1ccc(C2NC(C(=O)O)CS2)cc1 (centres undefined),-1.9,-7,.,.,103,i,0.95
O=C(NC1CC2CCC(C1)N2C(=O)NCc1ccccc1)NC12CC3CC(CC(C3)C1)C2 (centres undefined),-1.9,8,3,112,107,.,.
O=c1[nH]c(=O)c2ncc(-c3ccc(Cl)cc3)nc2[nH]1,.,0,.,.,105,i,0.76
CCCOC(=O)C(C)n1cnc2sc(C)c(C)c2c1=O (centres undefined),-2.4,-10,25,116,96,.,.
COc1cccc(COc2ccccc2C2Nc3ccc(Br)cc3C(=O)N2NC(=O)c2ccncc2)c1 (centres undefined),-2.9,7,.,.,100,.,.
CC(=O)NC1=NN(C(C)=O)C(c2ccc(F)cc2)S1 (centres undefined),.,-3,83*,70*,97,i,0.88
c1ccc2c(c1)CCCN2c1nc2ccccc2n2cnnc12,-4.6,-11,.,.,99,i,0.97
O=C(NC1CCCCC1)C(c1ccco1)N(C(=O)c1csnn1)C1CCCC1 (centres undefined),-2.1,-17,.,.,26,.,.
CC(=O)c1cnc2c(C(=O)O)cnn2c1C,-2.0,-7,17,130,108,i,0.91
Cc1ccc(S(=O)(=O)N(C)C)cc1NC(=O)CSc1nnnn1-c1ccc(O)cc1,.,.,.,.,103,i,1.2
CN(C)CCC(=O)N1c2ccccc2Sc2ccc(Cl)cc21,.,2,.,.,103,i,0.73
COc1cc(C=C2C(=O)OC(c3ccccc3)OC2=O)cc(Br)c1O (centres undefined),.,-3,60,90,30,i,1
Cc1cccc(C=Nc2ccc3c(c2)oc2ccccc23)c1O,-0.3,-2,.,.,103,i,1
O=S(=O)(Nc1ccc(Cl)cn1)c1cccc(S(=O)(=O)c2ccccc2)c1,.,-2,.,.,96,i,1.1
CCOc1ccccc1NC(=S)N(CCC(C)C)C1CCN(C(C)=O)CC1,.,1,-5,94,112,i,1.1
CC(C)COC(=O)C(C#N)c1nc2ccccc2nc1N1CCN(Cc2ccccc2)CC1 (centres undefined),-2.1,-2,-25,28,102,i,0.99
CCN(CC)C(=O)Nc1ccc(C(=O)OC)cc1,-0.4,-2,83*,234*,106,i,1
Cn1c(=O)c(C(=O)Nc2cccnc2)c(O)c2ccccc21,0.4,-3,56,95,.,.,.
COc1ccc(C2C(C#N)=C(N)Oc3cc4c(cc32)OCO4)cc1 (centres undefined),-0.4,-3,58,104,95,i,0.85
CSc1ccccc1C(=O)N1CCN(c2cccc(Cl)c2)CC1,.,-5,.,.,103,i,0.78
Oc1ccc2ccccc2c1N=Nc1ccccc1F,.,.,.,.,103,i,1.1
O=C(CCc1nnc(C2(c3ccc(Cl)cc3)CCC2)o1)NCCCn1cccn1,.,-4,.,.,102,i,0.92
Cc1ccc(NC(=O)c2nsc(Cl)c2Cl)cc1,.,.,.,.,102,i,1
O=c1cc(N2CCN(c3ccccc3Cl)CC2)[nH]c(=O)n1Cc1ccc(F)cc1,.,.,.,.,104,i,0.91
Cn1c(/N=C/c2c[nH]c3ccccc23)nc2ccccc21,-2.6,9,.,.,97,i,0.85
NC(=S)N/N=C/c1cc([N+](=O)[O-])ccc1Cl,.,-6,-27,130,102,i,0.95
O=C(NC1CCCCC1)N1CCN(CCc2ccccc2)CC1,-1.6,-11,22,149,102,i,0.94
N#CCCN1CCN(C(=S)c2ccc(-c3ccc(Cl)c(Cl)c3)o2)CC1,-1.1,7,0,86,99,i,1
Cc1ccc(S(=O)(=O)Nc2cccc(-c3ccc4nnc(C)n4n3)c2)s1,.,-8,.,.,104,i,0.84
O=C(COC(=O)CCC(=O)c1cccs1)Nc1ccccc1[N+](=O)[O-],.,-10,.,.,104,i,1
CNC(=O)N1CCN(C(=O)NC)CC1,-1.4,-6,6,107,109,i,0.7
CCOC(=O)/C(C#N)=C/N=c1ccc(C)cn1C,.,.,.,.,96,i,0.91
CCC(=O)Nc1ccc(C(=O)NNC(=O)c2ccc([N+](=O)[O-])cc2)cc1,.,-7,.,.,100,i,0.99
CCOc1ccc(-c2n[nH]c(=S)o2)cc1,.,-3,.,.,102,i,1
O=c1oc2ccccc2c(NCc2ccccc2)c1[N+](=O)[O-],-1.4,0,-36,67,97,i,1.1
CC(C)(C)c1ccc2c(c1)OC(C(=O)N/N=C/c1ccc([N+](=O)[O-])o1)CO2 (centres undefined),.,.,.,.,96,i,0.96
O=C1OC(c2ccccc2)c2ccc3ccccc3c21 (centres undefined),-0.6,-15,-59,48,120,i,0.93
Cc1[nH]c2c(C)cccc2c(=O)c1Br,-2.3,1,.,.,101,i,0.97
COc1ccccc1C(=O)CSc1cccc[n+]1[O-],.,-7,.,.,96,i,1
COC(=O)c1ccc(C2=NOC(C)(c3sc(-c4ccc(Cl)cc4)nc3C)C2)cc1 (centres undefined),.,.,.,.,96,i,1.1
O=C1CSC(c2ccc(Cl)cc2)N1 (centres undefined),-0.7,-6,26,48,97,i,1
Cc1ccc(Cn2c(CN3CCN(C(=O)c4ccco4)CC3)nc3c2c(=O)n(C)c(=O)n3C)cc1,-2.0,14,-55,67,104,.,.
COc1ccc(-c2csc(=Nc3c(C)n(C)n(-c4ccccc4)c3=O)n2C(C)(C)C)cc1,-1.3,-9,-3,52,104,i,0.76
CCOC(=O)c1cccc(NC(=O)CSc2nnnn2CC)c1,-2.5,-22,29,102,99,i,0.97
COc1ccc(-n2c(O)c(Cc3ccccc3)c(=O)n3nc(-c4ccccc4)c(=O)cc23)cc1,-2.5,7,10,69,95,i,1.1
Cc1ccccc1C(=O)N1CCN(c2ccc(NC(=O)c3cccnc3Cl)cc2)CC1,.,-5,.,.,97,i,0.87
COC(=O)c1c(NC(=O)C2C3CCC(O3)C2C(=O)O)sc2c1CCCCCC2 (centres undefined),0.2,-7,-17,84,110,i,0.96
CCCCn1c(SCC(=O)NC(C)CC)nc2ccc(N3CCOCC3)cc2c1=O (centres undefined),-0.9,7,-9,161,103,.,.
Cc1ccccc1NC(=S)NC(NC(=O)N(C)C)C(Cl)(Cl)Cl (centres undefined),-1.5,5,10,92,96,i,1.1
O=c1c(OC2OC(CO)C(O)C(O)C2OC2OC(CO)C(O)C(O)C2OC2OC(CO)C(O)C(O)C2O)c(-c2ccc(O)c(O)c2)oc2cc(O)cc(O)c12 (centres undefined),.,.,.,.,96,i,0.77
Cn1c(=S)[nH]c2scc(-c3cccs3)c2c1=O,.,5,.,.,100,i,1
O=C(O)c1ccc(S(=O)(=O)Nc2cccc(CP(=O)(c3ccccc3)c3ccccc3)c2)cc1,.,.,.,.,97,i,1.2
N#C/C(=C/c1cccn1-c1cccc(C(=O)O)c1)c1ccc(Cl)cc1,.,-4,-35,126,98,i,0.95
CC(C)c1cc(C(N)=O)c(NC(=O)c2cccc(COc3ccc(Br)cc3)c2)s1,-1.0,-8,-25,99,104,i,0.84
CCCCc1ccc(NC(=S)N2CCN(c3ncccn3)CC2)cc1,.,-12,.,.,98,i,0.95
Clc1ccc(CSc2nnc(-c3c[nH]c4ccccc34)o2)cc1,-1.6,-3,39,103,96,i,0.82
Cc1ccccc1NC(=S)N(CCCN1CCOCC1)Cc1cccs1,-0.4,0,0,63,181*[activator],i,1
O=S(=O)(NCc1cccnc1)c1cccc2cccnc12,0.1,-11,-68,145,109,i,0.9

# (next part)
SMILES,GALR2 agonist,PKD1 inh,Insulin prom inh,Insulin prom inh cell count,RGS16-Gao HTS,HSV augment,HSV augment primary fold
CC(=O)Nc1cccc(N(C)S(C)(=O)=O)c1,-0.3,-5,38,138,95,i,0.85
O=[N+]([O-])c1ncn(Cc2c(Cl)cccc2Cl)n1,-0.4,-1,.,.,100,i,0.94
CC1OC(Oc2c(-c3cc(O)c(O)c(O)c3)oc3cc(O)cc(O)c3c2=O)C(O)C(O)C1O (centres undefined),.,.,.,.,76,i,1.1
Nc1nc(SCC(=O)NCCCO)nc2sc3c(c12)CCC3,-1.6,-8,.,.,34,i,0.85
Cc1ccccc1OCC(=O)Nc1ccc2c(c1)OCCO2,.,.,.,.,104,i,0.93
O=C(Cn1nc(Cc2cccnc2)c2ccccc2c1=O)N1CCN(c2ccccn2)CC1,-1.1,-13,.,.,106,i,0.95
COc1ccccc1C(=O)ON=C1c2ccccc2-c2ccccc21,0.2,-9,21,132,33,i,1
COc1ccc(Nc2cc(C(=O)NCCCN3CCOCC3)c3ccccc3n2)cc1OC,-1.8,4,-320,48,110,i,0.79
CCCCCn1c(-c2ccco2)nc2nc3ccccc3nc21,3.7,-7,.,.,106,.,.
O=c1[nH]ncc(N2CCCCC2)c1Cl,-2.2,-5,0,104,113,i,0.89
CC1CCCN(c2c([N+](=O)[O-])c(=O)oc3ccccc23)C1 (centres undefined),28*,4,25,54,104,?,.
COc1ccc2nc3c(c(-c4ccccc4)c2c1)CCC3,-0.1,-6,19,85,101,i,0.94
CC(C)[C@@H]1CC[C@@H](C)C[C@H]1OC(=O)C[n+]1cc(-c2ccc(Cl)cc2)n2c1CCCCC2,.,.,.,.,91,i,0.77
Cc1cc(C)c(S(=O)(=O)N2CCN(c3ccc([N+](=O)[O-])c(-n4nc(C)cc4C)c3)CC2)c(C)c1,-2.8,-7,20,85,99,i,0.9
COc1ccc(CNC(=O)C2CCCN2S(=O)(=O)c2ccc(Cl)cc2)cc1 (centres undefined),-1.4,-6,-72,65,105,i,0.85
CC(Cc1cccs1)NC(=O)Nc1ccccc1 (centres undefined),-0.7,3,.,.,102,i,0.79
CCCCCc1cc(=O)oc2c(C(CCN3CCCCC3)c3cc(OC)c(OC)c(OC)c3)c(OC)cc(OC)c12 (centres undefined),.,.,.,.,99,i,0.41
COc1ccc(CCNC(=O)CCn2c(SCC#N)nc3ccccc3c2=O)cc1OC,-0.6,-20,33,48,220,i,0.59
Cc1ccc(C(C(=O)NC(C)(C)C)N(Cc2ccco2)C(=O)Cn2nnc(-c3cccs3)n2)cc1 (centres undefined),-2.1,-5,-13,69,110,i,0.7
Cc1cccc(-c2nc3c(c(SCC(N)=O)n2)CCCC3)c1,-2.5,-4,-311,47,103,i,0.97
CCOC(=O)NN1C(=O)c2ccccc2NC1c1ccc(OC)cc1OC (centres undefined),.,-4,0,113,99,i,0.99
C=CCNC(=O)N1CCCC(C(=O)c2cccc(Cl)c2)C1 (centres undefined),.,-2,.,.,96,i,0.88
Cc1cccc(OC(=O)n2c(=S)oc3cc(Cl)ccc32)c1,-0.9,-6,.,.,84,i,1
CCOC(=O)c1c(C)c(C(=O)O)n(C)c1C,0.8,-5,-50,101,102,i,0.84
CC(=O)Nc1nc(-c2cc([N+](=O)[O-])cs2)cs1,.,2,.,.,103,i,0.86
CCCn1c(SCC(=O)Nc2ccc(OC)cc2)nnc1-c1ccncc1,-2.1,-10,-65,87,106,i,0.93
COc1ccc(CNC(=O)C2CC(c3ccc(OC)cc3)=NO2)cc1 (centres undefined),-1.3,-1,45,86,100,i,0.8

# 7 of these compounds in a different format.
# Every second line gives: GALR2 agonist, PKD1 inh, Insulin prom inh, Insulin prom inh cell count, RGS16-Gao HTS, HSV augment, HSV augment primary fold
- Cc1ccc(C(C(=O)NC(C)(C)C)N(Cc2ccco2)C(=O)Cn2nnc(-c3cccs3)n2)cc1 (centres undefined)
→ -2.1, -5, -13, 69, 110, i, 0.7
- Cc1cccc(-c2nc3c(c(SCC(N)=O)n2)CCCC3)c1
→ -2.5, -4, -311, 47, 103, i, 0.97
- CCOC(=O)NN1C(=O)c2ccccc2NC1c1ccc(OC)cc1OC (centres undefined)
→ ., -4, 0, 113, 99, i, 0.99
- C=CCNC(=O)N1CCCC(C(=O)c2cccc(Cl)c2)C1 (centres undefined)
→ ., -2, ., ., 96, i, 0.88
- Cc1cccc(OC(=O)n2c(=S)oc3cc(Cl)ccc32)c1
→ -0.9, -6, ., ., 84, i, 1
- CCOC(=O)c1c(C)c(C(=O)O)n(C)c1C
→ 0.8, -5, -50, 101, 102, i, 0.84
- CC(=O)Nc1nc(-c2cc([N+](=O)[O-])cs2)cs1
→ ., 2, ., ., 103, i, 0.86

# Random draw from the library; 1.3% or so of the library scored in one or more.
